PINK1 modulator = PINK1 expression modulation; PINK1 immunofluorescence, high-content cytometry, 24 h; Potency, µM (series often up to 76.6 µM), without a hit: at the highest dose activation (PINK1 increase), hits mostly activators; hit rate 0.2% among 410,000; AID 624263; active = well fitted activation curve with a large enough effect; inconclusive = small, poorly fitted or top-dose-only effect; inactive = flat fitted curve, though single readings scatter; cell line not stated here;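 note: potency is the fitted concentration of half-maximal effect; % of control where 0% means no effect; nearly all actives have a fitted effect of over 65% in size; a mitochondrial uncoupler was the plate control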
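Decision-based qHTS: stable cells, 24 h exposure to five compound concentrations, CCCP as control. Fixed cells stained for PINK1 plus nuclear, mitochondrial and cell markers, cytometer read.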
TRPML1 ag = human mucolipin-1 channel agonism; TRPML1-expressing cells, Ca2+ dye fluorescence, FDSS; host cell line not named in the record; reference of the full effect not given here; activation, % (concentration not given with the values); hit rate 0.12% among 410,000; AID 624414; in the data active = activation above about 50%; inconclusive = about 30% to 50%; inactive = below about 30%; note: 0% is about no effect; the text of the record puts the active cut at 80%
Target sequence (Q9GZU1 whole entry, looked up): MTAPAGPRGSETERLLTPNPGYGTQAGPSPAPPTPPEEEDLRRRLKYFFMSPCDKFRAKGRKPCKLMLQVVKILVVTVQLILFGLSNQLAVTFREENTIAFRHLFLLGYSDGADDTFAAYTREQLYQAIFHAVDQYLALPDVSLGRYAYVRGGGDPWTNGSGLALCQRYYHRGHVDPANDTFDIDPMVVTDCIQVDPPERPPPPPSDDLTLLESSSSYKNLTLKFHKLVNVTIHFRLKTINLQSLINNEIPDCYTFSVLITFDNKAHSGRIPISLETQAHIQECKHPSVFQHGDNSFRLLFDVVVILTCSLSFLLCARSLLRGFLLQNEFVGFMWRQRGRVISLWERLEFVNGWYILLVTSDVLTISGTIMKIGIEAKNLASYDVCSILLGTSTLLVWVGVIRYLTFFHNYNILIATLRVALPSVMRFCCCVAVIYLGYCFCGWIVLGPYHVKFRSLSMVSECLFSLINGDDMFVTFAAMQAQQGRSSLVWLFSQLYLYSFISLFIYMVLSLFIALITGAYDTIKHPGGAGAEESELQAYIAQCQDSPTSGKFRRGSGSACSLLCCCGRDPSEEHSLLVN
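In this qHTS format, compounds were pin-transferred onto Ca8-dye-loaded TRPML1-DL cells induced with Tet overnight, and intracellular Ca2+ fluorescence was recorded kinetically for 110 s after a 10 s baseline. A subsequent 4uM final 54-4 (EC80) addition followed by a second 110 s read served as the antagonist phase.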
Six1-Eya2 blk = Six1/Eya2 interaction inhibition. Q15475+O00167. activity change, % (no concentration beside the values). AlphaScreen GST-Six1/His-Eya2 binding, biochemical; stronger effect = lower value; control for the full effect not named in the record. hit rate 0.56% among 360,000; in the data active = activity change below about -65%; inconclusive = about -30% to -65%; inactive = above about -30%; note: % is set by controls: 0 for no effect and ±100 for the full control effect; compound concentration not given in the record
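GST-Six1 + His-Eya2 (5X stock: 250/500 nM); Tris pH 8.0, 300 mM NaCl, 0.05% BSA, 0.02% Tween 20; GSH donor/Ni acceptor beads; 1 h 37 °C dark; AlphaScreen readout.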
D2 ag = activates the human D2 dopamine receptor. P14416. DiscoveRx PathHunter D2 beta-arrestin, luminescence, 90 min; 100% = 57 uM dopamine signal. activation, % (test concentration not listed). hit rate 0.084% among 360,000. AID 624465; in the data active = activation above about 40%; inconclusive = about 15% to 40%; inactive = below about 15%; note: compound concentration not given in the record; the text of the record calls up to 30% inactive
Target sequence (P14416 whole entry, looked up): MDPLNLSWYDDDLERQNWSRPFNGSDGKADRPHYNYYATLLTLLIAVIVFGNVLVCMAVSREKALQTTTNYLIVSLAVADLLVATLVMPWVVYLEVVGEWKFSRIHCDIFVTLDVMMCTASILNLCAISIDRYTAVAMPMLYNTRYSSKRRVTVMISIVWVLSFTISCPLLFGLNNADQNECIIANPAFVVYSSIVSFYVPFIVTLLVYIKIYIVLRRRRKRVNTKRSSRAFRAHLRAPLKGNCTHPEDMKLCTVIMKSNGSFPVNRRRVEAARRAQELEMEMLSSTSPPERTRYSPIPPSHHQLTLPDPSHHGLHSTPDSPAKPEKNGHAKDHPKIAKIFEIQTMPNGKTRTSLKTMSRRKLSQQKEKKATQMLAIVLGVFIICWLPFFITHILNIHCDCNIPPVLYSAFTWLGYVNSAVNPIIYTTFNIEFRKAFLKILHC
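DiscoveRx PathHunter D2 beta-arrestin cells (2,100/well) attached overnight, then compound-stimulated 90 min at 37 C in HBSS/10 mM HEPES/0.1% Tween-20 buffer; beta-galactosidase complementation read by luminescence after 1 h at ambient temperature. Dopamine 57 uM final (EC100) as control.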
CtBP-E1A blk = CtBP/E1A binding inhibition; hit rate 0.49% among 340,000; AID 651724; activity change, % (no concentration beside the values); AlphaScreen GST-E1A/His-CtBP binding, 1536-well; stronger effect = lower value; control for the full effect not named in the record; in the data active means activity change below about -65%; inconclusive means about -30% to -65%; inactive means above about -30%; note: % is set by controls: 0 for no effect and ±100 for the full control effect; compound concentration not given in the record
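Homogeneous bead-based format: GST-tagged E1A captured on glutathione donor beads, His-tagged CtBP on nickel acceptor beads; compounds precede bead addition by 2 h at 37 °C.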
TRPML1 blocker = human mucolipin-1 channel inhibition. Q9GZU1. TRPML1-inducible cells, Ca2+ dye fluorescence, FDSS; stronger effect = lower value; inhibition of EC80 agonist-evoked calcium signal. activity change, negative = inhibition, % (test concentration not listed). hit rate 0.02% among 390,000; in the data active means activity change below about -50%; inconclusive means about -30% to -50%; inactive means above about -30%;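 note: stimulus is agonist 54-4 at its EC80 concentration; % is set by controls: 0 for no effect and ±100 for the full control effect; compound concentration not given in the record; the text of the record puts the active cut at -80%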
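Calcium fluorescence in TRPML1-DL cells induced overnight with Tet: a 110 s read after compound pin addition, then a 110 s antagonist read after challenge with 54-4 at 4 uM final (EC80).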
* = called active by the depositor; ? = inconclusive; . = no result given; [ ] = remark or other dose.

1. COC(=O)c1ccccc1NC(=O)c1cccs1
2. O=C(CCC(=O)OCc1ccc(Cl)cc1)Nc1cccc([N+](=O)[O-])c1
3. CCC(C)C(NC(N)=O)C(=O)Nc1ccc(S(=O)(=O)Nc2ccc(OC)cc2)cc1 (centres undefined)
4. NC(=O)CSc1nnc(Cn2c(=O)sc3ccccc32)n1-c1cccc(Cl)c1
5. CCOC(=O)N1CCN(c2ncc3c(n2)CC(c2ccc(OC)c(OC)c2)CC3=O)CC1 (centres undefined)
6. CCc1ccc(NC(=O)N(Cc2cccnc2)Cc2ccco2)cc1
7. Cc1sc(N)c(C(=O)c2ccccc2Cl)c1C
8. O=c1oc2ccccc2n1CCn1c2ccccc2c2nc3ccccc3nc21
9. Cc1ccccc1-n1c2nc(=O)[nH]c(=O)c-2cc2c(Cl)cccc21
10. CC1CCCCN1S(=O)(=O)c1ccc2c(c1)CCN2C(=O)C1CC1 (centres undefined)

assay / entry	1	2	3	4	5	6	7	8	9	10
PINK1 modulator	1.5%	3.2%	1.1%	4.9%[38.3 µM]	1.7%	-1.5%[38.3 µM]	3.3%	6.8%	14%	2.6%
TRPML1 ag	0.5	-1.2	-0.5	0.6	5.2	2.8	3.4	0.0	4.7	0.1
Six1-Eya2 blk	8	0	3	-1	.	-1	-11	1	.	2
D2 ag	-2.6	-1.4	1.5	1.3	.	-2.0	1.1	-2.5	.	-2.2
CtBP-E1A blk	11	5	1	5	.	-2	-12	11	.	-4
TRPML1 blocker	-2	-7	19	3	8	-27	15	-5	-3	-17

11. O=C(NCC1(c2ccccc2)CCCC1)C(=O)NCC1(c2ccccc2)CCCC1
12. CCOc1ccc(NC(=O)CCNC(=O)Cn2ccc3ccccc3c2=O)cc1
13. Cc1ccc(NC(=O)c2ccc(N3C(=O)C4CC=C(Cl)CC4C3=O)cc2)cc1 (centres undefined)
14. CN=C1SC(C(=O)Nc2ccccc2Cl)CC(=O)N1c1ccc(OC(F)(F)Cl)cc1 (centres undefined)
15. CC1CCCCC1NC(=O)C1CCN(S(=O)(=O)c2ccc3c(c2)CCC(=O)N3)CC1 (centres undefined)
16. Cc1cc(N/N=C/c2ccccc2F)nc(NCc2ccccc2)n1
17. N#Cc1ccc(NC(=O)COC(=O)c2cccnc2Cl)cc1
18. O=C(CN1C(=O)CCS(=O)(=O)c2ccccc21)NCCc1ccccc1
19. COc1ccc(OCC(=O)Nc2cccc3ncccc23)cc1
20. Cc1ccc(OCCOCCN2CCN(C)CC2)c([N+](=O)[O-])c1

assay / entry	11	12	13	14	15	16	17	18	19	20
PINK1 modulator	11%	6.1%	5.7%[38.3 µM]	0.0%	0.7%	3.8%	0.4%	0.7%	-0.8%	0.6%
TRPML1 ag	-0.2	-1.4	0.1	0.3	0.5	1.2	0.7	0.5	-0.6	0.7
Six1-Eya2 blk	0	7	1	12	6	-7	-3	1	2	7
D2 ag	-2.6	-5.0	-0.4	-3.4	-4.6	-7.1	-3.3	-2.1	1.3	-2.0
CtBP-E1A blk	2	17	21	3	1	1	17	.	1	.
TRPML1 blocker	10	-6	1	-13	7	-1	11	-16	10	14

21. N#CCCN(C(=O)CSc1ncccn1)c1ccc2c(c1)OCCO2
22. O=C(CCSCc1ccccc1Cl)NCc1ccc(F)cc1Cl
23. O=C(CSc1nnnn1-c1ccc(F)cc1)NNC(=O)c1ccco1
24. CCc1ccc(NC(=O)CC2C(=O)OCCN2CC)cc1 (centres undefined)
25. CCOC(=O)c1cccc(NS(=O)(=O)c2cn(C)c(C)n2)c1
26. O=C(N/N=C/c1ccccn1)c1ccc(S(=O)(=O)N2CCCCCC2)cc1
27. CCOC(=O)C(C(=O)OCC)C(Nc1ccccc1)c1ccccc1 (centres undefined)
28. CCN(Cc1ccncc1)C(=O)c1ccc2c(c1)S(=O)(=O)c1ccccc1C2=O
29. O=C(Nc1nnc(SCc2cccnc2)s1)C1CC(=O)N(c2ccccc2)C1 (centres undefined)
30. CCc1nc2ccc(C(=O)NCCOc3ccc(OC)cc3)cn2c1N(C)C(=O)Cc1ccccc1

assay / entry	21	22	23	24	25	26	27	28	29	30
PINK1 modulator	1.4%	-0.6%	-1.2%	4.6%	-2.8%	0.2%	3.0%	0.1%	0.9%	2.2%
TRPML1 ag	-0.2	0.6	0.0	0.2	0.5	0.6	-0.2	-0.2	-0.4	-0.8
Six1-Eya2 blk	2	.	4	.	.	-1	6	4	-1	-10
D2 ag	-1.9	.	-1.7	.	.	-7.2	-3.5	-4.7	0.3	1.0
CtBP-E1A blk	.	.	1	.	.	.	5	-19	-2	3
TRPML1 blocker	-3	-1	-8	12	10	-21	33	-28	-10	.

A few values from the results shown.
entry 22 @ TRPML1 ag = 0.6
entry 29 @ PINK1 modulator = 0.9%
entry 25 @ TRPML1 ag = 0.5
entry 26 @ TRPML1 ag = 0.6
entry 23 @ PINK1 modulator = -1.2%

Continued:
31. COc1cc(NC(=O)COc2cccc3c2OC(C)(C)C3)cc(OC)c1OC
32. COc1cc(CN(C)CC(=O)c2[nH]c(C)c(C(C)=O)c2C)ccc1OC(F)F
33. Cc1ccc(C=NNc2ccc([N+](=O)[O-])cn2)cc1
34. O=C(c1cccs1)N1CCN(Cc2cccc([N+](=O)[O-])c2)CC1
35. Cc1ccc(CSc2oc(-c3ccco3)nc2S(=O)(=O)c2ccc(C)cc2)cc1
36. CCOC(=O)c1sc(NC(=O)COc2ncnc3ccccc23)c(C(=O)OCC)c1C
37. CCOC(=O)c1cnc(SCC(=O)Nc2cc(OC)cc(OC)c2)nc1N
38. CC(C)c1csc(CN2CCN(Cc3ccc(F)c(F)c3)C(CCO)C2)n1 (centres undefined)
39. CCCCNC(=O)c1cc2nc(-c3ccc(OC)cc3)cc(C(F)(F)F)n2n1
40. CCN(CC(=O)Nc1cccc(OC)c1)c1ncnc2sc(C)c(C)c12

assay / entry	31	32	33	34	35	36	37	38	39	40
PINK1 modulator	5.9%	2.2%	0.4%	2.1%	-2.0%	13%	?	-1.1%	6.6%	2.6%
TRPML1 ag	5.3	-0.3	3.2	-0.2	1.0	0.7	-0.4	0.6	-0.3	0.9
Six1-Eya2 blk	0	1	10	0	.	-7	-10	12	12	1
D2 ag	10	-0.2	2.5	-1.2	.	-2.5	-1.1	-0.3	0.1	0.5
CtBP-E1A blk	9	9	-5	5	.	5	-12	3	-2	-1
TRPML1 blocker	10	-2	15	-27	-4	-1	4	7	-12	12

41. CC1=Nc2ccccc2N=C(NC(=O)CN2CCN(c3ccccc3)CC2)C1c1ccccc1 (centres undefined)
42. CCOC(=O)c1c(NC(=O)c2ccc(N3C(=O)[C@@H]4[C@H](C3=O)[C@H]3C=C[C@@H]4C3)cc2)sc2c1CCCC2
43. COc1ccc(CNC(=O)C2CCCN2S(=O)(=O)c2ccc(F)cc2)cc1 (centres undefined)
44. Cc1nn(C)c(C)c1/C=C(/C(=O)C(C)(C)C)n1cncn1
45. CCC(C)c1ccc(NC(=S)Nc2ccc(OC)cc2C)cc1 (centres undefined)
46. Cc1ccc(C(=O)O)cc1NC(=S)NC(=O)c1ccc([N+](=O)[O-])c(C)c1
47. O=[N+]([O-])c1cc2c(cc1/C=N/n1c(-c3ccccn3)n[nH]c1=S)OCO2
48. Cc1cc(C)c2sc(N(CCCN(C)C)C(=O)c3ccc(S(=O)(=O)N(C)Cc4ccccc4)cc3)nc2c1
49. COc1ccc(OCC(=O)Nc2ccc(S(=O)(=O)Nc3cc(C)on3)cc2)cc1
50. C[N+]1(CC#CC(O)(c2ccccc2)c2ccccc2)CCCC1

assay / entry	41	42	43	44	45	46	47	48	49	50
PINK1 modulator	3.1%	2.9%	1.0%	7.8%	3.6%	3.9%	5.4%	-9.8%	-0.2%	1.1%
TRPML1 ag	0.4	0.2	-1.0	0.0	0.4	0.1	-0.1	0.9	0.9	0.9
Six1-Eya2 blk	-8	13	10	-1	9	2	-83*	?	-9	5
D2 ag	0.7	1.9	-1.2	-4.2	-4.8	-13	-2.7	-5.6	-0.4	-1.5
CtBP-E1A blk	2	.	-2	5	0	10	8	-7	3	2
TRPML1 blocker	7	7	10	12	7	21	8	26	14	13

51. CC1(c2nnnn2-c2ccc3c(c2)OCCO3)CCC(=O)N1CCc1c[nH]c2ccccc12 (centres undefined)
52. N#CCCn1c(Cl)nc2ccccc21
53. Cn1cnc([N+](=O)[O-])c1Sc1nc2ccccc2[nH]1
54. CCOc1ccc2[nH]c(C)c(CN3CCCCC3)c(=O)c2c1
55. Cc1ccc(S(=O)(=O)N2CCN(C(=O)COC(=O)c3cncc(Br)c3)CC2)c(C)c1
56. COc1ccccc1NC(=O)CCC(=O)OCc1cccc([N+](=O)[O-])c1
57. CCCc1nn2c(=O)cc(O)nc2s1

assay / entry	51	52	53	54	55	56	57
PINK1 modulator	-0.1%	-4.7%[38.3 µM]	-1.1%	1.2%	1.9%	-1.0%	0.9%
TRPML1 ag	-0.3	-0.3	-0.5	0.4	0.4	0.9	0.4
Six1-Eya2 blk	-9	4	-2	13	11	2	3
D2 ag	.	0.1	-7.3	-2.3	-0.5	4.8	0.5
CtBP-E1A blk	1	6	-2	-8	8	0	3
TRPML1 blocker	.	12	-3	-6	3	8	-12

4 of the compounds above, as labelled records:
26	O=C(N/N=C/c1ccccn1)c1ccc(S(=O)(=O)N2CCCCCC2)cc1
- PINK1 modulator: 0.2%
- TRPML1 ag: 0.6
- Six1-Eya2 blk: -1
- D2 ag: -7.2
- CtBP-E1A blk: .
- TRPML1 blocker: -21

27	CCOC(=O)C(C(=O)OCC)C(Nc1ccccc1)c1ccccc1 (centres undefined)
- PINK1 modulator: 3.0%
- TRPML1 ag: -0.2
- Six1-Eya2 blk: 6
- D2 ag: -3.5
- CtBP-E1A blk: 5
- TRPML1 blocker: 33

28	CCN(Cc1ccncc1)C(=O)c1ccc2c(c1)S(=O)(=O)c1ccccc1C2=O
- PINK1 modulator: 0.1%
- TRPML1 ag: -0.2
- Six1-Eya2 blk: 4
- D2 ag: -4.7
- CtBP-E1A blk: -19
- TRPML1 blocker: -28

29	O=C(Nc1nnc(SCc2cccnc2)s1)C1CC(=O)N(c2ccccc2)C1 (centres undefined)
- PINK1 modulator: 0.9%
- TRPML1 ag: -0.4
- Six1-Eya2 blk: -1
- D2 ag: 0.3
- CtBP-E1A blk: -2
- TRPML1 blocker: -10

Source: PubChem BioAssay (National Center for Advancing Translational Sciences (NCATS))
